Source: PubChem BioAssay
HIV TAR-Tat: HIV-1 TAR-Tat binding disruption; HIV-1 TAR RNA, Tat peptide displacement FRET; stronger effect = higher value; z-score (test concentration not listed); 0.6% of 100,000 active; AID 1259389;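 further: score is relative to mean and SD of negative controls; some compounds called inactive have numbers as strong as hits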
CDC25B CDK2 inh: human CDC25B-CDK2/CyclinA binding inhibition; z-score (test concentration not listed); 0.72% of 94,000 active; HTRF CDC25B-CDK2/CyclinA binding, anti-His/anti-Flag; stronger effect = higher value; P30305+P24941;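 further: score is relative to mean and SD of negative controls; strong numbers were not always called active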
Numbers without * were called inactive; . = not tested or not shown.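 How the source made its calls: active means z-score from 3 up in half or more of its runs; inactive means the rest.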

SMILES | HIV TAR-Tat | CDC25B CDK2 inh
Cc1ccc(-c2c(Nc3cccnc3)c(=O)c2=O)cc1C | 4 | .
O=C(CCc1nnc2ccc(N3CCCCC3)nn12)Nc1ccc2c(c1)OCCO2 | 1.4 | .
Cc1ccc(C(=O)NC(N=C=S)C(Cl)Cl)cc1 (configuration not stated) | . | 0.8
Oc1ccccc1C=Nc1ccc(F)cc1 | . | -0.84
CCN(CC)CCOC(=O)C(Cc1cccc2ccccc12)CC1CCCO1 (configuration not stated) | 0.46 | .
Cc1ccc(-n2ncc3c(N4CCCC(C)C4)ncnc32)cc1 (configuration not stated) | 1 | .
O=C(NCCCN1CCCC1=O)C1CCN(c2ncnc3c2sc2cccc(F)c23)CC1 | 1 | -0.27
CS(=O)(=O)N1CCN(c2nc3ccccc3n3cccc23)CC1 | 1.3 | -0.67
COC(=O)Cn1cnc2sc(C)c(S(=O)(=O)N3CCC(C)CC3)c2c1=O | . | 0.02
CCOc1ccc(OCC)c(NC(=O)Nc2cccs2)c1 | 0.64 | 4
O=C1C(=O)N(CCCN2CCOCC2)C(c2ccco2)/C1=C(\O)c1ccc(F)cc1 (configuration not stated) | 1.3 | -1.2
Cc1c(C(=O)NCCCn2ccnc2)oc2ccccc12 | 0.26 | -1.9
Cc1cc(C)nc(Nc2n[nH]c(-c3ccccc3)n2)n1 | 0.41 | 0.89
CS(=O)(=O)Nc1ccc(C2=NN(C(=O)c3ccco3)C(c3cccc(F)c3)C2)cc1 (configuration not stated) | . | -2.2
Cc1cc(=O)oc2oc3c(O)c(O)ccc3c12 | . | -3.2
CC1Cc2cc(S(=O)(=O)N3CCN(C4CCCCC4)CC3)ccc2N1C(=O)C1CCC1 (configuration not stated) | 1.1 | .
COCCn1c(SCC(=O)Nc2cc(C)on2)nnc1-c1c[nH]c2ccccc12 | . | -0.98
CCOC(=O)N1CCN(C(=O)c2noc3c2COc2ccccc2-3)CC1 | 2.5 | -0.67
Cc1cc(F)ccc1S(=O)(=O)NCCc1csc(-c2ccc(F)cc2)n1 | 0.06 | .
O=C1c2cccc3c(N4CCOCC4)ccc(c23)C(=O)N1c1cc(Cl)ccc1O | -4.8 | 9.7*
O=S(=O)(Nc1cccc(-c2nc3cc(Cl)ccc3o2)c1)c1ccccc1 | -0.77 | -2.3
COc1ccc2c(c1)CCc1c-2n[nH]c1C(=O)Nc1ccc2c(c1)C(=O)N(C)C1=NCCN12 | 1.3 | .
Cc1sc(/N=C/N(C)C)c(C(=O)c2ccc(Cl)cc2)c1C | . | -0.23
O=C(CN1CCN(Cc2ccccc2)CC1)N1CCCc2c1c(=O)oc1ccc(O)cc21 | . | 2.2
O=C(Cn1nc2c3sccc3ncn2c1=O)Nc1ccc(Cl)cc1 | 0.17 | .
O=C1c2ccncc2C(=O)N1c1ccc(Br)cc1 | . | -1.2
COCc1nnc(NC(=O)COc2ccc(Cl)cc2)s1 | 4.2 | 0.22
CN(c1ccc(F)cc1)S(=O)(=O)N1CCCC(C(=O)N2CCN(c3ccccn3)CC2)C1 (configuration not stated) | 1.7 | .
NC1=NC(c2ccccc2)N(c2ccccc2)C(N)=N1 (configuration not stated) | . | -2.2
CSc1cccc(NS(=O)(=O)c2cc3[nH]c4c(c3cc2C)C(=O)CCC4)c1 | 1.9 | .
Cc1cc(-c2ccc(C)c(S(=O)(=O)Nc3c(C)cccc3C)c2)on1 | -0.37 | .
O=C(Cn1ncc2c3ccccc3n(Cc3ccccc3)c2c1=O)NCCc1c[nH]c2ccccc12 | -1.1 | 1
O=S(=O)(CCN(CC1CCCO1)S(=O)(=O)c1ccccc1)N1CCNCC1 (configuration not stated) | 0.13 | .
O=C(c1cccnc1)n1nc(-c2ccco2)nc1NCc1cccs1 | 0.27 | 0.86
Cc1ccc(-c2cc(CC(C)C)nc(N)c2C#N)cc1 | . | -3.2
Cc1ccc(-n2nc3c(c2NC(=O)c2ccco2)CS(=O)C3)cc1 (configuration not stated) | . | 0.55
Cc1ccc(-n2nc3c(c2NC(=O)c2ccc(Br)cc2)CS(=O)(=O)C3)cc1 | 1 | .
CC(C)c1ccc([C@@H]2Nc3ccc(C(=O)O)cc3[C@@H]3C=CC[C@@H]32)cc1 | . | -0.19
COc1ccc2[nH]c3c(=O)n(CCCCC(=O)N4CCCC4)c(=S)[nH]c3c2c1 | . | -1.1
CCCN1CCN(C(=O)C2Cc3cc(S(=O)(=O)N4CCOCC4)ccc3N2C(C)=O)CC1 (configuration not stated) | 1.4 | .
CSCCOC(=O)C1=C(C)NC(=O)NC1c1ccccc1F (configuration not stated) | . | -0.98
CCc1cc2c(=O)c(-c3ccc4c(c3)OCCO4)c(C)oc2cc1OCC(=O)O | 0.71 | -1.6
CCc1ccc(C2Nc3cccc4cccc(c34)N2)cc1 | 35* | -1.1
CCN(CC)C(=O)C1CCN(S(=O)(=O)c2c(C)noc2/C=C/c2cccs2)CC1 | 1.2 | .
COC(=O)CN1C(=O)CSc2ccc(S(=O)(=O)NCc3cccs3)cc21 | -0.1 | .
CCOc1cccc(-c2nc3c(c(=O)[nH]2)Cc2cc(Br)ccc2O3)c1O | 4 | -1.3
COc1ccc(Nc2nc(-c3c(C)nc4ccccn34)cs2)cc1 | 0.18 | -1.9
Cc1ccc(S(=O)(=O)N2CCc3cc4ccccc4nc32)cc1 | -0.35 | -0.75
Fc1ccc(C2C3=C(Nc4ncnn42)c2ccccc2OC3c2ccccc2)cc1 (configuration not stated) | 1.3 | -1.7
CC1(C)Cc2cc3c(cc2C(SCc2ccccc2)=N1)OCCO3 | -0.46 | -0.26

(next part)
SMILES | HIV TAR-Tat | CDC25B CDK2 inh
Cc1nc(C)c(C(=O)NCc2ccc(S(=O)(=O)N3CCOCC3)s2)s1 | 0.82 | .
CCCCNS(=O)(=O)c1ccc2c(c1)S(=O)(=O)N=CN2 | 0.75 | .
C=CCN(C(=O)Nc1cn(CC(C)C)c(=O)c2ccccc12)c1ccccc1 | 0.82 | .
O=C(CN1C(=O)CCc2cc(Br)ccc21)NCCN1CCc2ccccc2C1 | 1.7 | .
CC(C)C(NC(=O)c1nccnc1C(=O)O)C(=O)O (configuration not stated) | . | 0.16
O=C(Nc1ccc2c(c1)OCCO2)c1cc2c(=O)oc3ccccc3c2s1 | . | -0.53
Cc1ccc(C2C3=C(CC(C)(C)CC3=O)Nc3cc4c(cc32)OCCO4)cc1 (configuration not stated) | . | -1.2
O=C(Cc1cccc(CC(=O)c2ccccc2)c1)c1ccccc1 | . | -1.8
CCOC(=O)N1CCC(NC(=O)CCc2c(C)nc3nc(C)nn3c2C)CC1 | 0.08 | -1.1
Cc1ccc(C)c(N2CCN(c3c(-c4ccccc4)c(=O)c3=O)CC2)c1 | 21 | .
COc1ccc(OC)c(C2Nc3ccc4ncccc4c3C3=C2C(=O)CC(C)(C)C3)c1 (configuration not stated) | 1.1 | -0.43
Fc1ccc(N2CCN(Cc3nnc(-c4cccc(Br)c4)o3)CC2)cc1 | -0.92 | -0.76
COC(=O)c1cc(S(=O)(=O)N2CCN(c3ccccc3)CC2)cn1C | 0.51 | -2.9
O=C(Nc1ccc(-c2cnco2)cc1)c1csc([N+](=O)[O-])c1 | . | -0.35
Cc1ccc2ncc(C(=O)Nc3ccc(F)cc3)c(=O)n2c1 | 0.07 | -1.8
CCN(CC)CCNc1cc(C)nc2c(-c3ccc(C)cc3)c(C(F)(F)F)nn12 | -0.24 | -1.3
CCOC(=O)C1=C(C(F)(F)F)Nc2ncnn2C1c1ccc(Cl)cc1 (configuration not stated) | 1.8 | .
CCOc1ccc(C2C(C(=O)OC)=C(C)NC3=C2C(=O)CC(C)(C)C3)cc1OC (configuration not stated) | 0.81 | -1.8
Cc1cnc(NC(=O)Nc2cccc(Cl)c2)s1 | 1.9 | 1.6
O=S(=O)(NCC1CCN(Cc2ccccc2F)CC1)c1cnc[nH]1 | 1.1 | .

For reference, some entries already given.
SMILES | HIV TAR-Tat | CDC25B CDK2 inh
O=C(Nc1ccc2c(c1)OCCO2)c1cc2c(=O)oc3ccccc3c2s1 | . | -0.53
Cc1ccc(C2C3=C(CC(C)(C)CC3=O)Nc3cc4c(cc32)OCCO4)cc1 (configuration not stated) | . | -1.2
O=C(Cc1cccc(CC(=O)c2ccccc2)c1)c1ccccc1 | . | -1.8
CCOC(=O)N1CCC(NC(=O)CCc2c(C)nc3nc(C)nn3c2C)CC1 | 0.08 | -1.1
Cc1ccc(C)c(N2CCN(c3c(-c4ccccc4)c(=O)c3=O)CC2)c1 | 21 | .
COc1ccc(OC)c(C2Nc3ccc4ncccc4c3C3=C2C(=O)CC(C)(C)C3)c1 (configuration not stated) | 1.1 | -0.43
Fc1ccc(N2CCN(Cc3nnc(-c4cccc(Br)c4)o3)CC2)cc1 | -0.92 | -0.76
COC(=O)c1cc(S(=O)(=O)N2CCN(c3ccccc3)CC2)cn1C | 0.51 | -2.9
O=C(Nc1ccc(-c2cnco2)cc1)c1csc([N+](=O)[O-])c1 | . | -0.35
Cc1ccc2ncc(C(=O)Nc3ccc(F)cc3)c(=O)n2c1 | 0.07 | -1.8
CCN(CC)CCNc1cc(C)nc2c(-c3ccc(C)cc3)c(C(F)(F)F)nn12 | -0.24 | -1.3
CCOC(=O)C1=C(C(F)(F)F)Nc2ncnn2C1c1ccc(Cl)cc1 (configuration not stated) | 1.8 | .
CCOc1ccc(C2C(C(=O)OC)=C(C)NC3=C2C(=O)CC(C)(C)C3)cc1OC (configuration not stated) | 0.81 | -1.8
Cc1cnc(NC(=O)Nc2cccc(Cl)c2)s1 | 1.9 | 1.6

Next section:
SMILES | HIV TAR-Tat | CDC25B CDK2 inh
CCCc1nn2c(=O)cc(CSc3nnc(-c4ccc(OCC)cc4)o3)nc2s1 | 0.16 | -0.49
CCCNC(=O)Cn1cnc2sc(C(=O)NCCC3=CCCCC3)c(C)c2c1=O | . | 0.24
CCOC(=O)C1=C(C)NC2=C(C(=O)CCC2)C1c1ccc(CC)cc1 (configuration not stated) | 0.23 | -0.1
Cc1ccc2oc(=O)n(C(=O)c3ccccc3C)c2c1 | 1.5 | .
Fc1cccc(Cl)c1CSc1nnc(-c2ccccc2)o1 | -0.74 | -0.44
Cc1nn(-c2nncc(-c3ccc(F)cc3)n2)c2c1C(c1ccccc1Br)CC(=O)N2 (configuration not stated) | 2.1 | -0.82
Cc1cc(C)n2c(SCc3cccs3)nnc2n1 | . | -1.2
CC(C)Cc1nn2c(=O)cc(COC(=O)CSc3ccccc3)nc2s1 | 0.43 | .
CCSCCOC(=O)C1=C(C)NC2=C(C(=O)CC(C)(C)C2)C1c1cc(OC)ccc1OC (configuration not stated) | 1.1 | .
CCN(CC)S(=O)(=O)c1ccc(Nc2nc3ccccc3n3nnnc23)cc1 | -0.18 | -0.52
O=C(Nc1ccc(F)cc1F)C1CCN(c2ccccc2)C1=O (configuration not stated) | 1.1 | .
Cc1ccc(-c2nc(C(N)=O)c3[nH]c(=O)n(-c4ccc(Cl)cc4)c3n2)o1 | . | -2.6
COc1ccc(C2Nc3ccccc3-c3nnc(SCc4ccccc4F)nc3O2)c2ccccc12 (configuration not stated) | . | 0.65
COc1ccc(C2CC(=O)C3=C(C2)Nc2ccccc2NC3c2cccc(Cl)c2)cc1 (configuration not stated) | -1.6 | -2
Cn1c(O)c(C2=Nc3ccccc3SC(c3ccc(F)cc3)C2)c(=O)n(C)c1=O (configuration not stated) | 3.5 | -1.9
Cc1cc(NC(=O)c2[nH]nc3c2COc2ccccc2-3)no1 | 1 | .
O=C1c2cccnc2C(=O)N1Cc1ccc(F)cc1S(=O)(=O)NCc1ccccc1Cl | -0.18 | .
CCOC(=O)Cc1nnc(NC(=O)C(=O)c2c[nH]c3ccccc23)s1 | 1.5 | -1.2
COc1ccc(N2CSC3=C(C#N)C(c4c(OC)ccc5ccccc45)CC(=O)N3C2)cc1 (configuration not stated) | -2 | 6.4*
CCCCC(=O)Nc1c2c(nn1C(C)(C)C)CS(=O)C2 (configuration not stated) | . | -1
Oc1cc(O)c2c(c1)O[C@H](c1cc(O)c(O)c(O)c1)[C@H](O)C2 | 30* | .
N#Cc1nc(COc2ccccc2Cl)oc1N1CCC(C(N)=O)CC1 | 0.53 | -1.1
O=C(c1ccco1)N1CCN(C(=O)c2nc(CS(=O)(=O)c3ccccc3)no2)CC1 | 1.1 | .
Cc1ccc(S(=O)(=O)OCCCCN2C(=O)CC3(CCCC3)CC2=O)cc1 | . | -0.29
COC(=O)c1cc(-c2ccc(S(=O)(=O)N3CCc4ccccc43)s2)on1 | -6.1 | .
COCCSc1ncc(CO)n1Cc1ccc(OC)cc1 | 2.9 | .
CC(=O)N1CCOc2ccc(S(=O)(=O)N(C)CC(=O)N3CCc4ccccc43)cc21 | 0.97 | .
Cc1cc(C)nc(-n2[nH]c(C)c(Cc3ccc(C(C)(C)C)cc3)c2=O)n1 | 0.44 | -1.4
N#CC(c1ccccc1)N(CCO)CCO (configuration not stated) | . | -1.6
Cc1ccc(NS(=O)(=O)c2cc(-c3cc(C)no3)ccc2C(C)C)nc1 | 1.9 | .
Cc1ccn2c(Nc3ccc4c(c3)OCCO4)c(-c3ccc(O)cc3)nc2c1 | . | -1.6
CCOC(=O)Cn1c(=O)sc2ncc(Br)cc21 | . | -6.2
O=C(Nc1ccc(-c2nnc(-c3ccc(NC(=O)C(Cl)Cl)cc3)o2)cc1)C(Cl)Cl | . | 1.4
CCOC(=O)c1c(S(=O)(=O)N2CCCCC2C)c(C)n(C)c1C (configuration not stated) | 1.3 | .
O=C(NCc1cccnc1)c1ccc2oc(=O)n(Cc3ccccc3)c2c1 | 0.46 | .
Cc1nn(C)c(NC(=O)Nc2ccccc2)c1C1=CCCCC1 | -0.72 | -2
COc1ccc(-c2cc(N)n(S(=O)(=O)Cc3ccccc3)n2)cc1 | -0.48 | -1.6
O=C(C1CCN(S(=O)(=O)c2cccc3nsnc23)CC1)N1CCC(N2CCCCC2)CC1 | . | -0.48
